GIV-Gai inh = GIV-Galpha-i interaction inhibition. P08753. Galpha-i3/FITC-GIV peptide fluorescence polarization, 90 min; stronger effect = lower value; scaled: aluminum fluoride 0%, vehicle 100%. percent of control (FP), % (test concentration not listed). hit rate 0.42% among 210,000. AID 1224905;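 active means replicate mean at 85% of control or lower, very high polarization wells dropped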;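 further: wells of about 15 µL received 100 nL stock; the first replicate is given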
Target sequence (P08753 whole entry, looked up): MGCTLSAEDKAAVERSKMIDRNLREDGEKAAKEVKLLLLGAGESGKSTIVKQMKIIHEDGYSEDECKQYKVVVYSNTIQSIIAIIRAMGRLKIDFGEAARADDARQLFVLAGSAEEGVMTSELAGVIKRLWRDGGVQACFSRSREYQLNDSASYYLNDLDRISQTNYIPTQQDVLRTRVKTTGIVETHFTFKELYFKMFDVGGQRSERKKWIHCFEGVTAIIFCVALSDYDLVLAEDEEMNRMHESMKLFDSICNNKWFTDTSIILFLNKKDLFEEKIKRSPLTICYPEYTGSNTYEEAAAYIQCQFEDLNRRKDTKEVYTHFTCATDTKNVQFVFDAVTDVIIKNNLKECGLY
Sa growth 42C = blocks Staphylococcus aureus growth. relative growth, % (no concentration beside the values). S. aureus RN4220 growth, OD600, 20 h, 42 °C; stronger effect = lower value. AID 720641. hit rate 0.53% among 170,000;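 active means growth at 42 °C up to 50% and 20 or more points under that at 30 °C, or under 10% at both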;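 further: 300 nL library stock went into each well; scaled to the means of positive and negative controls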
HCMV NEC inh = inhibitors of HCMV UL50-UL53 nuclear egress complex interaction. inhibition, % (test concentration not listed). HTRF UL50-UL53 interaction, normalized percent inhibition. hit rate 0.15% among 190,000. AID 1918969;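 active means both replicates at 50% or more, plus weaker picks with an unusually low signal ratio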;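 further: stock transfer was 100 nL into about 20 µL; 0% = negative control wells and 100% = wells with untagged competitor protein; inactives centre near -12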
Sa growth 42C second temp = further read-out of Sa growth 42C, marked with its call; relative growth, %; measured here: growth at 30 °C;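 optical density after 20 h as mean of two plates; 100% = untreated growth and lower means inhibition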
* hit, by the source's call; · = not tested or not shown.

Sample of the layout (three entries):
Structure | GIV-Gai inh | Sa growth 42C | Sa growth 42C second temp | HCMV NEC inh
O=S1(=O)CCC(NCC2CCCO2)C1 (stereo not given) | · | 87 | 91 | 10
Cc1cccc(C(=O)N2CCN(c3cc(C)nc(N4CCCC4)n3)CC2)c1 | 105 | · | · | -21
Cc1ncc(-c2ccc3ccccc3c2)s1 | 105 | 86 | 76 | -18

The listing (from the top)
Structure | GIV-Gai inh | Sa growth 42C | Sa growth 42C second temp | HCMV NEC inh
O=S1(=O)CCC(NCC2CCCO2)C1 (stereo not given) | · | 87 | 91 | 10
Cc1cccc(C(=O)N2CCN(c3cc(C)nc(N4CCCC4)n3)CC2)c1 | 105 | · | · | -21
Cc1ncc(-c2ccc3ccccc3c2)s1 | 105 | 86 | 76 | -18
Cc1ccc(-n2c(C)nc3sc4c(c3c2=O)CCC4)cc1 | · | 109 | 78 | -12
Cc1ccc(C(=O)Nc2ccc(-c3cn4c(n3)SCC4)cc2)cc1C | 106 | 92 | 85 | 1
CC(NC(=O)CCn1[nH]c(=O)ccc1=O)C12CC3CC(CC(C3)C1)C2 (stereo not given) | · | 80 | 95 | -33
Cc1ccc(-c2nnn(C3CCOC3=O)n2)cc1 (stereo not given) | · | 101 | 94 | -2
COc1cc(NC(=O)c2cc(-c3ccccn3)n[nH]2)cc(OC)c1 | 107 | · | · | 9
O=C1CSC2(C(=O)N(Cc3c(F)cccc3Cl)c3ccccc32)N1c1ccc(F)c(F)c1 (stereo not given) | 105 | 105 | 93 | ·
c1ccc(-c2ccc(CNCC3CCNCC3)o2)cc1 | 100 | · | · | -15
CCCSc1nnc2c(n1)OC(CC)N(C(C)=O)c1ccccc1-2 (stereo not given) | 109 | 94 | 93 | -41
CC(C)C(NC(=O)Cc1ccccc1)C(C)C | 103 | 101 | 98 | 2
CCN(CC)S(=O)(=O)c1cccc(C(=O)Nc2cccc(NC(=O)c3cccc(S(=O)(=O)N(CC)CC)c3)n2)c1 | 105 | · | · | -11
COc1ccc(/C=C/c2nc(C#N)c(NC3CCCCC3)o2)cc1OC | 97 | 101 | 83 | -12
Cn1c(=O)c(C(=O)N2CCN(c3ccccn3)CC2)nn(-c2ccc(Cl)cc2)c1=O | 103 | · | · | -42
CCOC(=O)c1c(C)n(-c2ccccc2)c2c1cc(OC(=O)c1cccc(F)c1)c1ccccc12 | 106 | · | · | -4
O=C(Nc1ccccc1C(=O)NCCc1ccccn1)c1ccc(Cl)c(Cl)c1 | 98 | 91 | 85 | -23
Cc1ccc2c(c1)C(=O)C(=O)N2Cc1ccccc1OC(C)C | 103 | · | · | -41
Cc1cc(C)c(NC(=O)CCc2c(C)nc3c(c(C)nn3C(C)(C)C)c2C)c(C)c1 | 102 | 87 | 91 | -41
CCC(C(=O)N1CCN(CC)CC1)N1C(=O)CCCc2ccccc21 (stereo not given) | 110 | · | · | -9
COc1cc(NC(=O)CSc2ncc(S(=O)(=O)c3ccc(Br)cc3)c(=O)[nH]2)cc(OC)c1 | 115 | 116 | 76 | -14
Cc1cn(C)c(CC(=O)NCc2ccccc2Cl)c1C(=O)O | 98 | 106 | 91 | ·
CCN(CC)CCCNC(=O)Cc1ccc(NC(=O)N2CCCCc3ccccc32)cc1 | 99 | 93 | 86 | ·
COc1ccccc1C(=O)NC1(C(F)(F)F)C(=O)Nc2c1c(=O)[nH]c(=O)n2-c1ccc(F)cc1 (stereo not given) | 111 | 106 | 105 | 30
NC#Cc1cnn(-c2ccccc2)n1 | 105 | 98 | 94 | 8
CC1(C(=O)NC2CCCCC2)Cn2c(cc3ccccc32)C(=O)N1Cc1cccc(Cl)c1 (stereo not given) | 106 | · | · | -22
CCOC(=O)Nc1ccc2c(CN(C)Cc3ccc(F)cc3)cc(=O)oc2c1 | · | 63 | 95 | -16
CNC(=O)c1c(C)nn(-c2ccc(F)c(Cl)c2)c1-c1cc(C)on1 | 100 | 98 | 97 | 6
Cc1cc(C(C#N)c2nc3ccccc3o2)nc(N2CCOCC2)n1 (stereo not given) | · | 67 | 87 | -19
O=C(NC1CCCCC1)c1ccc2c(=O)n(-c3ccccc3)c(=O)[nH]c2c1 | 101 | 87 | 88 | -9
Cc1ccc(CNC(=O)C(C)n2ncn3cccc3c2=O)cc1 (stereo not given) | 97 | 81 | 78 | -20
Cn1cc(C(=O)c2ccc(Cl)cc2)cc1/C=C(\C#N)S(=O)(=O)c1cccs1 | 103 | 103 | 87 | -23
CCOc1cc(C#N)c(NC(=O)c2cccc(S(=O)(=O)N3CCOCC3)c2)cc1OCC | 107 | 89 | 97 | 23
CCN(CC)c1ccc(-c2nc3cc(NC(=O)c4ccc(OC)c(OC)c4)ccc3o2)cc1 | 99 | · | · | -5
COc1ccc(OC)c(NC(=O)CSC2=Nc3ccccc3C3=NC(CCC(=O)NCCc4ccccc4)C(=O)N23)c1 (stereo not given) | 107 | 120 | 81 | ·
Cc1ccc(S(=O)(=O)N2CCOCC2)cc1C(=O)OCC(=O)N(C)c1ccccc1 | · | 90 | 92 | -8
O=C(Nc1cccc(S(=O)(=O)N2CCOCC2)c1)c1cnn2c(C(F)F)cc(-c3ccccc3)nc12 | 101 | · | · | -26
CC(=O)Nc1ccc(/C=C/c2nc(-c3ccccc3O)n(-c3ccccc3)n2)cc1 | 103 | 118 | 84 | -14
CC(=O)N(CCS(=O)(=O)c1ccc(Cl)cc1)Cc1cccs1 | 102 | 109 | 77 | -8
CC(C)CSc1nc2sccc2c(=O)n1-c1ccccc1 | · | 98 | 96 | 16
CN(Cc1nc(-c2ccccc2)no1)C(=O)CCN1C(=O)c2ccccc2C1=O | 101 | 100 | 99 | -48
CS(=O)(=O)Cc1cccc(C(=O)NCc2ccco2)c1 | · | 100 | 91 | -2
Cc1ccc(O)c(C(=O)c2cnc3nc4ccccc4n3c2)c1 | · | 64 | 69 | -34
CCOc1ccc(S(=O)(=O)NCC2CCCO2)c2ccccc12 (stereo not given) | · | 110 | 85 | -8
COc1cc(CNn2c(-c3cc(OC)c(OC)c(OC)c3)nc3ccccc3c2=O)cc(OC)c1OC | 104 | · | · | -16
Nc1nc2ccc(CC(=O)O)cc2s1 | · | 103 | 95 | -6
O=C(NCCC1=CCCCC1)c1[nH]nc2c1CCc1ccccc1-2 | 101 | · | · | -15
Cc1nc(-c2nc(-c3c(C(=O)N/N=C/c4ccc(Cl)cc4)noc3C)cs2)cs1 | 102 | 88 | 84 | -25
CCOC(=O)c1csc(-c2cccs2)n1 | 107 | 113 | 88 | ·
O=C(CC1Oc2ccccc2NC1=O)NCc1cccnc1 (stereo not given) | 109 | 95 | 101 | -6
Cc1nc(-c2ccc(S(=O)(=O)N3CCN(c4ccc(F)cc4)CC3)cc2)co1 | 106 | 97 | 87 | ·
COC(=O)C(C)Nc1n[nH]c(=S)[nH]c1=O (stereo not given) | 101 | 112 | 96 | -41
COc1ccc(CNC(=O)CSc2ncc(S(=O)(=O)c3ccc(Br)cc3)c(=O)[nH]2)cc1 | 102 | 93 | 90 | 5
CC1CCC(Nc2ncnc3onc(-c4ccc(F)cc4)c23)CC1 (stereo not given) | 105 | 87 | 94 | ·
O=C(COC(=O)C1(c2ccccc2)CC1)N1CCN(c2ccc(F)cc2)CC1 | · | 78 | 95 | -28
Cc1ccc(C(=O)CSc2nnc(-c3cccc(C)c3)o2)cc1 | 103 | 81 | 74 | -15
CCCCc1nn2c(=O)cc(COC(=O)c3ccco3)nc2s1 | 104 | 97 | 89 | ·
Clc1ccc2c(c1)CN(C1CCCCC1)CO2 | 97 | 111 | 106 | -10
O=C1CCCC(O)=C1C(C1=C(O)CCCC1=O)c1ccccc1 | · | 87 | 80 | 0
O=C(O)CC(NC(=O)Cc1ccccc1)c1ccccc1 (stereo not given) | 93 | 101 | 118 | 8

Remaining list, next part.
Values run as follows: GIV-Gai inh	Sa growth 42C	Sa growth 42C second temp	HCMV NEC inh
CC1(C)C(=O)NC(=O)N1C(=O)c1ccccc1
→ 101	96	80	-21
CN(C)c1ccc(N2C(=O)CC(NNc3ccccc3)C2=O)cc1 (stereo not given)
→ 99	91	85	-61
Cc1cc(C)n(-c2ccc(C(=O)OCC(=O)Nc3ccccc3)cc2)n1
→ ·	97	97	-1
Cc1ccc(Cl)cc1NS(=O)(=O)c1c(C)sc(C)c1-c1ccno1
→ 103	·	·	-16
COc1ccc(C2N(C(=O)c3ccccc3)CCN2C(=O)c2ccc(C)cc2)cc1 (stereo not given)
→ 110	94	104	·
COCCN(Cc1ccco1)C(=O)c1cc2c(=O)[nH]c3ccc(C)cc3c2s1
→ 111	95	83	-36
CCCNC(=O)CN1C(c2ccccc2)=CC(c2ccccc2)n2nnnc21 (stereo not given)
→ 98	·	·	-13
CN(CCNC(=O)CCc1cn(-c2ccccc2)nc1-c1ccc2c(c1)OCO2)Cc1ccccc1
→ 96	·	·	-28
CCC(=O)N1CCc2cc(CNC(=O)Nc3ccc(OC)cc3OC)ccc21
→ 105	83	90	·
Cn1ccc2cc(S(=O)(=O)N3CCC(C(=O)N4CCN(c5ccccc5)CC4)CC3)ccc21
→ 106	·	·	-26
COc1ccc(Nc2nnc(-n3nc(C)cc3C)c3ccccc23)cc1
→ 106	107	89	-6
CCC(=O)n1nc(-c2ccccc2)nc1NCc1ccccc1
→ 101	102	101	2
CN(C)c1ccc2c(C(F)(F)F)cc(-c3ccccc3)nc2c1
→ ·	97	94	-4
CCC(=O)Nc1c(C(N)=O)oc2ccccc12
→ 101	90	89	-31
Cc1cc(NC(=O)CSC2=Nc3ccccc3N=C(c3ccccn3)C2)ccc1Br
→ 105	·	·	15
Cc1cccc(C(=O)NC2=NC(c3ccc(Cl)cc3)CC(=O)N2)c1 (stereo not given)
→ 103	99	93	·
CCCCNC(=O)c1cc2c(C)cc(C)cc2[nH]1
→ 107	95	94	-23
CCN(C(=O)Cn1cc(C(=O)c2ccc(F)cc2)c(=O)c2ccc(C)nc21)c1cccc(C)c1
→ 122	87	88	·
Cc1ccc(NC(=O)c2nnc(CCCC(=O)NCc3ccccn3)s2)cc1
→ 101	·	·	-38
CCN1CCN(C(=O)c2cc[n+]([O-])cc2)CC1
→ ·	97	96	8
CC(=O)Nc1ccc(NC(=O)c2ccccc2N(C)S(C)(=O)=O)cc1
→ 99	95	94	-3
O=S(=O)(/C=C/c1ccccc1)N1CCN(CC(O)COCc2ccccc2)CC1 (stereo not given)
→ ·	95	90	-15
Cc1ccc(-c2n[nH]c3c2C(c2ccccc2Cl)N(c2ccc(C(=O)O)cc2)C3=O)cc1 (stereo not given)
→ 109	111	64	-20
Cc1nc(-c2ccccc2OC(F)(F)F)[nH]c(=O)c1Cl
→ 101	101	84	-27
O=C(c1ccccc1)N(CCN1CCOCC1)C1(C(=O)Nc2ccccc2)CCCCC1
→ ·	108	98	-2
CN(CC(=O)C(C#N)c1ccccc1)Cc1ccccc1 (stereo not given)
→ 112	118	103	-4
NC(=O)/C=C/C(=O)Nc1ccc2c(c1)OCO2
→ 107	135	7	-26
CCOC(=O)c1ccc(-c2ccc(/C=C(\C#N)c3nc4ccc(C)cc4[nH]3)o2)cc1
→ 213	94	84	-68
CC(NC(=O)CCCn1c(=O)oc2ccccc21)c1ccc(S(N)(=O)=O)cc1 (stereo not given)
→ ·	73	86	-31
CC(=O)Nc1ccc(NC2=CC(=O)CC3(CCCCC3)C2)cc1
→ ·	113	98	-14

Full records, quoted from the list.
CC(NC(=O)CCCn1c(=O)oc2ccccc21)c1ccc(S(N)(=O)=O)cc1 (stereo not given) in the list: GIV-Gai inh = ·; Sa growth 42C = 73; Sa growth 42C second temp = 86; HCMV NEC inh = -31
CCCCNC(=O)c1cc2c(C)cc(C)cc2[nH]1 in the list: GIV-Gai inh = 107; Sa growth 42C = 95; Sa growth 42C second temp = 94; HCMV NEC inh = -23

Further results follow:
Values run as follows: GIV-Gai inh	Sa growth 42C	Sa growth 42C second temp	HCMV NEC inh
CCCc1cc(=O)oc2cc(OCC(=O)N3CCc4ccccc43)ccc12
→ ·	94	102	31
Cc1cc(C)c2nc3s/c(=C/c4ccc(-c5ccccc5C(=O)O)o4)c(=O)n3c2c1
→ 219	·	·	-31
O=C(COCc1cc(-c2ccc(F)cc2)on1)Nc1cc(Cl)cc(Cl)c1
→ 109	118	87	·
Cc1ccc(-n2c(SCc3ccccc3F)nc3[nH]ncc3c2=O)cc1Cl
→ 102	40	33	·
Cc1ccc2nc(-c3ccccc3O)c(Nc3ccccc3C)n2c1
→ 99	98	89	-23
CCOC(=O)N1CCN(S(=O)(=O)c2ccc(C(=O)Nc3nc4c(cc5c6c(cccc64)CC5)s3)cc2)CC1
→ 96	·	·	-13
COc1ccc(-c2noc(CSc3nc4ccsc4c(=O)[nH]3)n2)cc1
→ 99	·	·	-30
O=C(Cn1nc2c(N3CCOCC3)nc3ccccc3n2c1=O)NCc1ccccc1Cl
→ 108	·	·	-8
Cc1cnc(C(=O)OCC(=O)N(C)c2ccccc2)cn1
→ ·	100	92	4
CCC(=Nc1ccc(N)cc1)C1=C(O)CC(C)(C)CC1=O
→ ·	100	60	-85
CCCCNC(=S)N1CC2(C)CC1CC(C)(C)C2 (stereo not given)
→ ·	110	88	-10
O=C(CCc1c[nH]c2ccccc12)N1CCN(S(=O)(=O)c2ccc3c(c2)OCCO3)CC1
→ ·	104	90	-11
Cc1ccc(S(=O)(=O)N2CCN(c3cnn(-c4ccccc4)c(=O)c3Cl)CC2)cc1
→ 101	102	102	14
NNc1nc(-c2ccccc2Cl)c2cc(Br)ccc2n1
→ 103	·	·	-32
O=C(c1cnc(N2CCCCC2)c2ccccc12)N1CCN(c2ccc(F)cc2)CC1
→ 107	91	82	·
CN(C(=O)Cn1nnc(-c2cccs2)n1)C1CCCc2ccccc21 (stereo not given)
→ ·	103	87	-28

Hits appear at their usual frequency; about 0.83% have a hit in one of these screens.
